# A1 apoptosis 2 – A1 inhibition read as caspase activation; MEF A1-2A-BIM cells, caspase-Glo luminescence, 3 h; percent of clofoctol response, DMSO zero; caspase activation, % (no concentration beside the values); 24,000 tested, under 10 active; in the data active = caspase activation above about 5.9%;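 note: wells of about 30 µL received 50 nL stock; the first replicate is given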
#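 Test system – A1-2A-BIM-expressing MEF cells · Input – 2500 cells/well · Medium – RPMI-1640 growth medium with 10% FBS · Compound dosing – 50 nL pinned compound · Timing – 3 h compound exposure at 37 °C · Technique – Caspase-Glo luminescence (DEVD substrate) · Evaluation – Caspase-3/7 activity from luminescence increase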
# * marks the source's active call; other numbers are inactive results. These rows are one share of the data; rates above refer to the full screens.
SMILES,A1 apoptosis 2
C[C@H]1CN([C@@H](C)CO)C(=O)Cc2cc(NC(=O)Nc3cccc4ccccc34)ccc2O[C@H]1CN(C)C(=O)Nc1ccc(F)cc1,-1.2
NNC(=O)CCCCCCC(=O)Nc1ccccc1O,-2.2
C[C@@H]1CN([C@H](C)CO)C(=O)c2cc(NC(=O)Nc3ccc(F)cc3)ccc2O[C@@H]1CN(C)Cc1ccc2c(c1)OCO2,0.9
C[C@H](CO)N1C[C@H](C)[C@H](CN(C)S(=O)(=O)c2ccc(F)cc2)OCCCC[C@H](C)Oc2ccc(NS(C)(=O)=O)cc2C1=O,0.3
C[C@@H]1CCCCO[C@@H](CN(C)Cc2ccc3c(c2)OCO3)[C@@H](C)CN([C@H](C)CO)C(=O)c2cc(NC(=O)CCCCCC(=O)Nc3ccccc3N)ccc2O1,1.2
C[C@@H]1CCCCO[C@@H](CN(C)Cc2ccc(C(F)(F)F)cc2)[C@@H](C)CN([C@@H](C)CO)C(=O)c2cc(NC(=O)c3ccccc3)ccc2O1,0.4
C[C@H]1CN([C@@H](C)CO)C(=O)Cc2cc(NC(=O)NC3CCCCC3)ccc2O[C@@H]1CN(C)S(=O)(=O)c1ccccc1,0.3
C[C@H](CO)N1C[C@H](C)[C@@H](CN(C)S(=O)(=O)c2ccc(C#N)cc2)OCc2cnnn2CCCC1=O,-0.9
Cc1ccc(S(=O)(=O)N(C)C[C@H]2Oc3ccc(NC(=O)NC4CCCCC4)cc3C(=O)N([C@H](C)CO)C[C@H]2C)cc1,-0.3
COc1ccc(S(=O)(=O)N(C)C[C@@H]2Oc3ccc(NC(=O)Nc4cccc5ccccc45)cc3C(=O)N([C@@H](C)CO)C[C@H]2C)cc1,0.7
COc1ccc(S(=O)(=O)Nc2ccc3c(c2)C(=O)N([C@@H](C)CO)C[C@H](C)[C@H](CN(C)C(=O)c2ccncc2)OCCCC[C@@H](C)O3)cc1,-0.7
C[C@@H]1CN([C@@H](C)CO)C(=O)Cc2cc(NS(=O)(=O)c3cccs3)ccc2O[C@@H]1CN(C)CC1CCCCC1,0.7
C[C@@H]1CN([C@H](C)CO)C(=O)c2cccc(NC(=O)Nc3ccc(C(F)(F)F)cc3)c2O[C@H]1CN(C)Cc1ccc(Oc2ccccc2)cc1,-1.3
C[C@@H]1CCCCO[C@@H](CN(C)C(=O)Nc2cccc3ccccc23)[C@H](C)CN([C@@H](C)CO)C(=O)c2cc(NC(=O)c3ccncc3)ccc2O1,0.7
C[C@@H]1CCCCO[C@@H](CN(C)Cc2ccc(Cl)c(Cl)c2)[C@@H](C)CN([C@@H](C)CO)C(=O)c2cc(NC(=O)Nc3cccc4ccccc34)ccc2O1,1.3
Cc1ccc(S(=O)(=O)Nc2ccc3c(c2)CC(=O)N([C@H](C)CO)C[C@H](C)[C@@H](CN(C)C(=O)Nc2ccc(C(F)(F)F)cc2)O3)cc1,-0.4
COc1ccc(CN(C)C[C@@H]2Oc3ccc(NC(=O)Nc4ccc(C(F)(F)F)cc4)cc3CC(=O)N([C@H](C)CO)C[C@@H]2C)cc1,-1.0
CC(C)NC(=O)Nc1ccc2c(c1)C(=O)N([C@@H](C)CO)C[C@H](C)[C@H](CN(C)C(=O)CCCN(C)C)OCCCC[C@H](C)O2,0.4
Cc1noc(C)c1NC(=O)N(C)C[C@@H]1Oc2c(NS(C)(=O)=O)cccc2C(=O)N([C@H](C)CO)C[C@@H]1C,-0.2
CC(C)NC(=O)Nc1ccc2c(c1)CC(=O)N([C@@H](C)CO)C[C@H](C)[C@@H](CN(C)Cc1ccc(Oc3ccccc3)cc1)O2,0.2

# Filtered by structure, the compounds so far with two or more sulfur atoms (2)
SMILES,A1 apoptosis 2
C[C@H](CO)N1C[C@H](C)[C@H](CN(C)S(=O)(=O)c2ccc(F)cc2)OCCCC[C@H](C)Oc2ccc(NS(C)(=O)=O)cc2C1=O,0.3
C[C@@H]1CN([C@@H](C)CO)C(=O)Cc2cc(NS(=O)(=O)c3cccs3)ccc2O[C@@H]1CN(C)CC1CCCCC1,0.7

# (next part)
SMILES,A1 apoptosis 2
COc1ccc(S(=O)(=O)N(C)C[C@@H]2Oc3ccc(NC(=O)Cn4cnnn4)cc3C(=O)N([C@@H](C)CO)C[C@H]2C)cc1,-0.3
C[C@@H]1CCCCO[C@@H](CN(C)C(=O)NC2CCCCC2)[C@H](C)CN([C@H](C)CO)C(=O)c2cc(NC(=O)NC3CCCCC3)ccc2O1,-0.5
Cc1ccc(S(=O)(=O)N(C)C[C@H]2Oc3ccc(NS(=O)(=O)c4cccs4)cc3C(=O)N([C@H](C)CO)C[C@H]2C)cc1,0.5
C[C@H](CO)N1C[C@H](C)[C@H](CN(C)C)Oc2ccc(NS(C)(=O)=O)cc2CC1=O,0.1
C[C@@H]1CN([C@@H](C)CO)C(=O)Cc2cc(NC(=O)CCCCCC(=O)Nc3ccccc3N)ccc2O[C@H]1CN(C)CC1CC1,-0.5
Cc1noc(C)c1NC(=O)Nc1cccc2c1O[C@H](CN(C)S(C)(=O)=O)[C@@H](C)CN([C@@H](C)CO)C2=O,0.4
C[C@H]1CN([C@@H](C)CO)C(=O)c2cc(NS(C)(=O)=O)ccc2O[C@@H]1CN(C)Cc1ccc2c(c1)OCO2,-1.8
Cc1ccc(S(=O)(=O)N(C)C[C@@H]2Oc3ccc(NC(=O)Nc4c(C)noc4C)cc3C(=O)N([C@@H](C)CO)C[C@H]2C)cc1,-0.5
CC(C)NC(=O)Nc1ccc2c(c1)C(=O)N([C@@H](C)CO)C[C@@H](C)[C@H](CN(C)C(=O)Nc1ccc(C(F)(F)F)cc1)O2,-0.5
COc1ccc(S(=O)(=O)N(C)C[C@H]2Oc3ccc(NS(C)(=O)=O)cc3C(=O)N([C@@H](C)CO)C[C@@H]2C)cc1,0.4
O=C(CCCCCC(=O)N/N=C/c1ccc(OCCO)cc1)NO,0.7
O=C(NCc1ccc(F)cc1)[C@@H]1C[C@@H]2C(=O)N3CCC[C@H]3C(=O)N2[C@@H]1c1cccc(OCCO)c1,0.4
C[C@@H]1CN([C@@H](C)CO)C(=O)c2cc(NC(=O)Nc3ccccc3)ccc2O[C@@H](C)CCCCO[C@H]1CN(C)Cc1ccc(Cl)c(Cl)c1,0.1
COc1ccc(S(=O)(=O)N(C)C[C@@H]2Oc3c(NC(=O)c4ccc(-c5nccs5)cc4)cccc3C(=O)N([C@H](C)CO)C[C@H]2C)cc1,0.3
O=C(CCCCCC(=O)NN=C1CCCCCCC1)NO,0.3
C[C@@H]1CCCCO[C@H](CN(C)S(C)(=O)=O)[C@@H](C)CN([C@H](C)CO)C(=O)c2cc(NC(=O)Nc3ccccc3)ccc2O1,0.1
C[C@H](CO)N1C[C@H](C)[C@H](CN(C)S(=O)(=O)c2ccccc2)Oc2c(NC(=O)Nc3cccc4ccccc34)cccc2C1=O,-1.3
COc1ccc(NC(=O)Nc2ccc3c(c2)C(=O)N([C@H](C)CO)C[C@@H](C)[C@H](CN(C)S(C)(=O)=O)OCCCC[C@@H](C)O3)cc1,-0.4
C[C@@H]1CCCCO[C@@H](CN(C)S(=O)(=O)c2cn(C)cn2)[C@H](C)CN([C@@H](C)CO)C(=O)c2cc(NC(=O)Cc3ccccc3)ccc2O1,-0.4
C[C@@H]1CN([C@H](C)CO)C(=O)Cc2cc(NC(=O)Cc3cn(C)c4ccccc34)ccc2O[C@H]1CN(C)C(=O)NC1CCCCC1,1.7
COc1ccc(S(=O)(=O)N(C)C[C@H]2Oc3c(NC(=O)C4CCOCC4)cccc3C(=O)N([C@H](C)CO)C[C@H]2C)cc1,0.3
C[C@H]1CCCCO[C@H](CN(C)C(=O)c2ccncc2)[C@@H](C)CN([C@@H](C)CO)C(=O)c2cc(NS(=O)(=O)c3ccccc3)ccc2O1,0.9
C[C@@H]1CN([C@@H](C)CO)C(=O)c2cc(NS(=O)(=O)c3ccc(Cl)cc3)ccc2O[C@H]1CN(C)CC1CCCCC1,0.6
C[C@@H]1CN([C@H](C)CO)C(=O)Cc2cc(NC(=O)c3ccncc3)ccc2O[C@H]1CN(C)Cc1ccc(-c2ccccc2)cc1,2.3
COc1ccc(S(=O)(=O)N(C)C[C@H]2OCc3cnnn3CCCC(=O)N([C@H](C)CO)C[C@@H]2C)cc1,0.4
C[C@H](CO)N1C[C@H](C)[C@H](CN(C)C(=O)Nc2cccc3ccccc23)OCCCC[C@H](C)Oc2ccc(N(C)C)cc2C1=O,0.4
C[C@@H]1CN([C@@H](C)CO)C(=O)c2cc(NC(=O)CCN3CCOCC3)ccc2O[C@H]1CN(C)S(=O)(=O)c1ccc(F)cc1,0.2
C[C@@H]1CN([C@H](C)CO)C(=O)c2cc(NC(=O)CCN3CCOCC3)ccc2O[C@@H]1CN(C)S(=O)(=O)c1ccccc1,-1.4
C[C@H](CO)N1C[C@H](C)[C@H](CN(C)Cc2ccccc2)Oc2ncc(C#CCN(C)C)cc2C1=O,0.9
Cc1noc(C)c1NC(=O)Nc1cccc2c1O[C@@H](CN(C)C(=O)NC(C)C)[C@@H](C)CN([C@@H](C)CO)C2=O,0.2
C[C@H](CO)N1C[C@H](C)[C@H](CN(C)C(=O)Nc2ccc3c(c2)OCO3)Oc2ncc(-c3cc4ccccc4o3)cc2C1=O,1.1
C[C@@H]1CN([C@H](C)CO)C(=O)c2cc(NC(=O)C3CC3)ccc2O[C@H]1CN(C)C(=O)Nc1ccccc1,-1.5
C[C@@H]1CN([C@H](C)CO)C(=O)c2cc(NC(=O)Cc3cn(C)c4ccccc34)ccc2O[C@H]1CN(C)Cc1ccc(Cl)c(Cl)c1,-0.4
C[C@@H]1CN([C@@H](C)CO)C(=O)c2cc(NC(=O)CCCN(C)C)ccc2O[C@H]1CN(C)S(=O)(=O)c1ccc(F)cc1,-0.6
COc1ccc(/C=N/NC(=O)c2ccccn2)c(O)c1,-13
C[C@@H]1CN([C@@H](C)CO)C(=O)c2cc(NC(=O)CCCN(C)C)ccc2O[C@@H]1CN(C)S(=O)(=O)c1ccccc1,0.7
C[C@@H]1CN([C@H](C)CO)C(=O)c2cc(NS(=O)(=O)c3ccc(Cl)cc3)ccc2O[C@@H]1CN(C)S(=O)(=O)c1cccs1,-0.7
COc1ccc(CN(C)C[C@H]2Oc3ccc(NS(=O)(=O)c4cccs4)cc3CC(=O)N([C@@H](C)CO)C[C@@H]2C)cc1,-1.1
Cc1noc(C)c1NC(=O)N(C)C[C@@H]1Oc2ccc(N(C)C)cc2CC(=O)N([C@H](C)CO)C[C@H]1C,0.8
Cc1noc(C)c1S(=O)(=O)Nc1ccc2c(c1)C(=O)N([C@@H](C)CO)C[C@H](C)[C@@H](CN(C)S(=O)(=O)c1ccc(Cl)cc1)O2,-1.5

# Copied from the listing (2 entries):
SMILES,A1 apoptosis 2
C[C@H](CO)N1C[C@H](C)[C@H](CN(C)C(=O)Nc2ccc3c(c2)OCO3)Oc2ncc(-c3cc4ccccc4o3)cc2C1=O,1.1
C[C@@H]1CN([C@H](C)CO)C(=O)c2cc(NC(=O)C3CC3)ccc2O[C@H]1CN(C)C(=O)Nc1ccccc1,-1.5

# Some of the entries above, reformatted:
SMILES	A1 apoptosis 2
C[C@@H]1CN([C@H](C)CO)C(=O)c2cc(NC(=O)Cc3cn(C)c4ccccc34)ccc2O[C@H]1CN(C)Cc1ccc(Cl)c(Cl)c1	-0.4
C[C@@H]1CN([C@@H](C)CO)C(=O)c2cc(NC(=O)CCCN(C)C)ccc2O[C@H]1CN(C)S(=O)(=O)c1ccc(F)cc1	-0.6
COc1ccc(/C=N/NC(=O)c2ccccn2)c(O)c1	-13
C[C@@H]1CN([C@@H](C)CO)C(=O)c2cc(NC(=O)CCCN(C)C)ccc2O[C@@H]1CN(C)S(=O)(=O)c1ccccc1	0.7

# (list continues)
SMILES,A1 apoptosis 2
Cc1ccc(S(=O)(=O)N(C)C[C@@H]2Oc3ccc(NC(=O)CCC(F)(F)F)cc3C(=O)N([C@@H](C)CO)C[C@H]2C)cc1,1.3
Cc1ccc(S(=O)(=O)N(C)C[C@@H]2OCCCC[C@@H](C)Oc3ccc(NC(=O)C4CCCCC4)cc3C(=O)N([C@@H](C)CO)C[C@@H]2C)cc1,-0.8
Cc1ccc(S(=O)(=O)Nc2cccc3c2O[C@@H](CN(C)C(=O)Nc2ccccc2)[C@@H](C)CN([C@@H](C)CO)C3=O)cc1,-1.4
CC(C)(C)OC(=O)NC1(/C=N/NC(=O)CCCCCC(=O)O)CCCC1,-0.4
C[C@@H]1CN([C@H](C)CO)C(=O)c2cccc(NC(=O)Nc3ccc4c(c3)OCO4)c2O[C@H]1CN(C)Cc1ccccc1,-0.5
COc1ccc(CN(C)C[C@@H]2Oc3ccc(NS(=O)(=O)c4ccc(F)cc4)cc3CC(=O)N([C@@H](C)CO)C[C@@H]2C)cc1,-1.0
C[C@@H]1CCCCO[C@@H](CN(C)Cc2ccccc2)[C@@H](C)CN([C@@H](C)CO)C(=O)c2cc(NC(=O)NC3CCCCC3)ccc2O1,1.2
COc1ccc(CN(C)C[C@H]2OCCCC[C@H](C)Oc3ccc(NC(=O)Cc4ccccc4)cc3C(=O)N([C@@H](C)CO)C[C@H]2C)cc1,1.3
C[C@H]1CCCCO[C@@H](CN(C)Cc2ccccc2)[C@@H](C)CN([C@@H](C)CO)C(=O)c2cc(NC(=O)CCC(F)(F)F)ccc2O1,1.1
C[C@@H]1CN([C@H](C)CO)C(=O)c2cccc(N(C)C)c2O[C@H]1CN(C)C(=O)NC1CCCCC1,-1.2
C[C@@H]1CCCCO[C@@H](CN(C)C(=O)Nc2ccccc2)[C@@H](C)CN([C@H](C)CO)C(=O)c2cc(NC(=O)c3ccccc3)ccc2O1,1.0
Cc1noc(C)c1S(=O)(=O)Nc1ccc2c(c1)C(=O)N([C@H](C)CO)C[C@H](C)[C@H](CN(C)S(=O)(=O)c1c(C)noc1C)OCCCC[C@H](C)O2,1.3
